# Beta apoptosis: beta cell apoptosis inhibition | INS-1E cytokine-induced death, ATP luminescence, 48 h; percent of positive-control rescue, neutral wells zero | protection from apoptosis, % (concentration not given with the values) | 300,000 compounds, 0.8% hits;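 active = all replicates at 75% or more, or half of them and the mean; inconclusive = half reach 75% but not the mean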;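 also: 0% = cytokine-treated negative control wells and 100% = positive control rescue; higher means more ATP so stronger rescue from cytokine killing; wells of about 40 µL received 100 nL stock; the first replicate is given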
# T cruzi inh: T. cruzi replication inhibition. T. cruzi beta-gal in NIH3T3, luminescence, 90 h. inhibition, % (test concentration not listed). 300,000 compounds, 1.4% hits;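 active = mean inhibition across valid replicates above about 55%, limit read from the data; inconclusive = mean below that limit but half or more replicates reach it; inactive = mean below it, under half of replicates reach it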;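 also: signal also drops with host cell toxicity which is not excluded here; 0% = plate median of DMSO wells and 100% = zero luminescence signal; higher percent means less beta-gal luminescence so fewer parasites; stock transfer was 50 nL into about 50 µL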
# rRNA inh HTS: inhibitors of bacterial rRNA selective over humanized ribosomes; GFP signal change (wild-type ribosome), % (concentration not given with the values); 350,000 compounds, 1.6% hits; E. coli WT GFP vs humanized-ribosome RFP mutants, fluorescence, 24 h; hits give low values; DMSO median 0, no signal -100; AID 720706;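 active = significant combined selectivity score with lowered wild-type GFP, culture density cut under 30%, mutant RFP and density less affected; inactive = any of these conditions unmet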; also: one replicate is shown; some compounds called inactive have numbers as strong as hits
# Calb FLC: C. albicans growth modulation with fluconazole; 300,000 compounds, 0.57% hits; C. albicans CaCi-2 (fluconazole-resistant clinical isolate) + fluconazole, Alamar Blue growth, 48 h; growth inhibition, % (concentration not given with the values);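 active = most replicates above 75%; inconclusive = exactly half above 75%; inactive = most below 75%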;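 also: all wells also contain fluconazole at 8 µg/ml as a sub-toxic cotreatment; 0% = median of DMSO wells and 100% = median of geldanamycin control wells; wells of about 8 µL received 7.5 nL stock; the first replicate is given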
# AF4-AF9 inh: blocks AF4 peptide binding to human AF9; P42568; AlphaScreen, biotin-AF4 peptide binding to FLAG-AF9; inhibition, % at 10 µM; 350,000 compounds, 0.47% hits; AID 651704;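 active = every replicate reaching a set inhibition limit, whatever the replicate mean, cut at about 25% in these data; inconclusive = mean inhibition reaches that limit but some replicates miss it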;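 also: 0% = plate neutral control median and 100% = total signal loss; the record names both 10 and 1 µM as test concentration; the first replicate is given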
# Target sequence (P42568 whole entry, looked up): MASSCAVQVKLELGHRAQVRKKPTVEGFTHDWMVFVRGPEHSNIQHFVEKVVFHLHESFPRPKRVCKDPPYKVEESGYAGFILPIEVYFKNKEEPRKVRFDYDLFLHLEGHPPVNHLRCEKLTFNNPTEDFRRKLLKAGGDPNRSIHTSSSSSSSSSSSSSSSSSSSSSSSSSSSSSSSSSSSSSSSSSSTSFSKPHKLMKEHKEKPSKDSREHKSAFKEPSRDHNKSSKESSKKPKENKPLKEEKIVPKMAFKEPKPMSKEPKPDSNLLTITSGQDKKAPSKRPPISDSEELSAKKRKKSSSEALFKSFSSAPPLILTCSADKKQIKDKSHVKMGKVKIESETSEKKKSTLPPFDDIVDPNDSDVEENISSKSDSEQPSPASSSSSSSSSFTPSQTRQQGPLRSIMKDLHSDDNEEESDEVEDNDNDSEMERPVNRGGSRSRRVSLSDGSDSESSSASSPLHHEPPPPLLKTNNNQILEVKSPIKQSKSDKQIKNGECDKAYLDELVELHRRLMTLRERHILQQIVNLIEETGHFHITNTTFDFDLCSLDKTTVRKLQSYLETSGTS
# RanGTP-Imp inh: disruptors of Ran-importin-beta complex formation – biochemical, FRET, CFP-Ran, YFP-importin-beta, homogeneous, primary screen; inhibition, % (no concentration beside the values); AID 2216; cell-free CFP-Ran/YFP-importin-beta FRET ratio; 300,000 compounds, 1.1% hits;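 active = most replicates above 15%; inconclusive = exactly half above 15%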;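 also: 0% = DMSO wells and 100% = Ran loaded with GDP instead of GTP; wells of about 40 µL received 100 nL stock; the first replicate is given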
# ALR inh: human ALR oxidase inhibition via reduced H2O2; P55789; purified ALR, DTT oxidation, H2O2 HRP-luminol luminescence; inhibition, % (concentration not given with the values); 290,000 compounds, 3.8% hits; AID 485317;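 active = mean and each replicate at 75% or more; inconclusive = only one of the two met; inactive = neither met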;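 also: stock transfer was 7.5 nL into about 7.5 µL; 0% = neutral wells and 100% = wells with inactivated enzyme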
# Target sequence (P55789 whole entry, looked up): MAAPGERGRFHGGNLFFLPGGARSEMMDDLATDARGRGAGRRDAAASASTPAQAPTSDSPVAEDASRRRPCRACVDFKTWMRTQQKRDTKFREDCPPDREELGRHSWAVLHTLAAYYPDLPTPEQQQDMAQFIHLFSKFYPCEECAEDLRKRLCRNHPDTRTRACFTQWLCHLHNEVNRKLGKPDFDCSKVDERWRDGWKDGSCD
# FGF22 binding: FGF22 (human) thermal shift binding; Q9HCT0; recombinant FGF22 thermal shift, SYPRO orange fluorescence; percent of sucrose octasulfate shift, DMSO zero; calls only at 9.99 µM; 340,000 compounds, 1.5% hits;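 active = melting point raised past a set limit in the mean and every replicate; inconclusive = no clear call; three in four hits are not shown here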
# Target sequence (Q9HCT0 whole entry, looked up): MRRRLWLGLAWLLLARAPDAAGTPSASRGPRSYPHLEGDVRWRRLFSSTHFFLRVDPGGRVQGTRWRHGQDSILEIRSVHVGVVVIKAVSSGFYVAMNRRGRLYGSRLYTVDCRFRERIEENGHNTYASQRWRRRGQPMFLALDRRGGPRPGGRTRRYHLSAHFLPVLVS
# rRNA inh HTS OD600: also measured in rRNA inh HTS; calls as there; OD600 change, %; measured here: OD600 growth;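 optical density of the mix in the first replicate; 0 = DMSO median and -100 = no signal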
# rRNA inh HTS RFP: further read-out of rRNA inh HTS, marked with its call; RFP signal change, %; measured here: RFP humanized mutant strains;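 first replicate; 0 = DMSO median and -100 = no signal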
# Starred values were filed as active, the others as inactive; i = inactive; u = inconclusive; x = no result given; + = active, no number. These rows are one share of the data (hit frequency here may not be typical).
No.	molecule	Beta apoptosis	T cruzi inh	rRNA inh HTS	rRNA inh HTS OD600	rRNA inh HTS RFP	Calb FLC	AF4-AF9 inh	RanGTP-Imp inh	ALR inh	FGF22 binding
1	COCCCNC(=O)CCC(=O)NNc1nc2ccccc2c2nc(C)nn12	-1.1	-4.8	10.0	8.8	2.5	-6.4	1.6	3.2	3.7	i
2	COc1ccc(-n2nc3c(N4CCC(C(=O)NCCc5ccccc5C)CC4)nnc(C)c3c2C)cc1	37.6	10.1	x	x	x	5.6	x	0.6	1.7	x
3	COC(=O)c1ccc(C(=O)OC)c(NC(=O)/C=C/C(=O)O)c1	-7.9	-10.1	15.6	13.1	-2.4	4.1	1.8	2.9	10.1	i
4	O=C(c1cccc(S(=O)(=O)NCc2ccccc2)c1)N1CCCCC1	-4.9	-3.8	-3.2	5.7	-1.5	-8.5	5.4	0.6	1.5	i
5	CCc1ccc(N2CC(C(=O)OCC(=O)Nc3ccc(C#N)cc3)CC2=O)cc1 (stereo not drawn)	-0.7	x	-3.5	-8.1	3.0	x	3.3	x	-5.4	+
6	CCC(=O)NC(=S)NNC(=O)c1ccc(O)cc1	-0.3	-8.7	-34.9	-53.4	0.6	4.3	0.3	-2.3	39.0	i
7	CCCc1cc(=O)[nH]c(SCC(=O)c2cc(C)n(C(C)COC)c2C)n1 (stereo not drawn)	-0.1	-10.3	x	x	x	-2.9	x	-0.6	-2.6	x
8	S=c1[nH]nc(CSCc2ccccc2Cl)n1-c1ccccc1	-7.7	3.2	x	x	x	-4.1	x	0.7	93.9*	x
9	Cc1cc2ccccn2c1C(=O)c1ccc(Cl)c([N+](=O)[O-])c1	11.3	12.9	4.7	-0.1	-4.4	3.8	-2.3	-2.3	10.3	i
10	COc1cccc(OCc2nc3ccccc3[nH]2)c1	7.2	4.0	-10.3	-6.1	-1.8	8.9	-10.9	-1.1	5.5	i
11	COc1ccc(NC(=O)Cc2ccc(C)cc2)cc1S(=O)(=O)N1CCCCC1	3.5	x	-15.6	-16.4	0.8	x	-4.0	x	x	i
12	O=C(Nc1ccc(-c2cn3ccsc3n2)cc1)C1COc2ccccc2O1 (stereo not drawn)	-1.7	6.7	x	x	x	14.8	x	4.1	-1.8	x
13	CC1=C(C#N)C(NC(=O)C(C)(C)C)(C(F)(F)F)C(=O)N1 (stereo not drawn)	-7.1	7.9	x	x	x	-1.8	x	-0.5	-9.1	x
14	CCC(=O)Nc1nnc(-c2ccc(Cl)s2)o1	-4.0	-25.9	-17.0	-16.2	-1.4	0.9	-1.0	u	-6.9	i
15	S=C(Nc1ccccc1)Nc1cccc(Cl)c1Cl	-11.5	-28.8	8.5	12.4	1.3	-3.2	-0.8	-2.2	x	i
16	CC(CNC(=O)c1ccc(OC2CCN(Cc3ccccn3)CC2)cc1)c1ccccc1 (stereo not drawn)	1.1	-1.5	-2.3	-5.9	-1.8	9.8	3.1	0.9	x	i
17	CCOC(=O)C1CCN(CC(=O)Nc2c(C(=O)OC)n(C)c3cccc(C)c23)CC1	-0.2	-8.5	x	x	x	-0.5	x	4.0	-4.5	x
18	Cc1[nH]c(=O)[nH]c(=O)c1S(=O)(=O)Nc1cccc([N+](=O)[O-])c1C	-6.6	-0.6	8.6	11.2	2.2	-2.2	-0.7	0.5	-1.7	+
19	Cc1cc(C)n(C(=O)CNC(=O)c2ccc3c(c2)OCCO3)n1	-3.4	5.1	x	x	x	21.4	x	10.6	-9.3	x
20	CC(=O)Nc1cccc2c1Cc1ccccc1-2	x	-8.7	x	x	x	33.5	x	3.5	-4.7	x
21	CCc1nc2ccccc2c(C(=O)Nc2ccc(F)cc2)c1C	-1.4	-7.8	11.8	-0.1	2.0	-26.1	-1.5	-2.2	2.9	i
22	COC(=O)CCCC1=CC2=CC(=O)C(C)(OC(=O)c3cccs3)C(=O)C2=CN1Cc1ccc2c(c1)OCO2 (stereo not drawn)	-7.9	-14.3	7.9	0.8	1.7	7.3	0.1	0.1	x	i
23	CC(C)N(C)C1CCN(C(=O)Nc2ccc(Cl)cc2)CC1	-6.7	-12.4	x	x	x	-21.1	x	4.5	6.4	x
24	CCCCN(C(=O)c1ccc(C)o1)c1c(N)n(CCCC)c(=O)[nH]c1=O	-0.9	-0.4	12.3	5.2	3.6	4.7	-2.4	u	-11.2	x
25	CC1=C(C(=O)Nc2ccccc2C)C2(CCCC2)C(C(N)=O)C(=O)N1 (stereo not drawn)	-2.8	x	x	x	x	6.4	x	3.4	-9.8	x
26	COc1ccc(/C=N/NC(=O)CCC(=O)Nc2ccc(F)cc2)c(OC)c1	x	6.6	14.2	13.8	1.1	-0.4	2.7	-1.8	-5.0	i
27	COc1ccc(CCN2CCCC(CN(C)Cc3cccc(OC)c3)C2)cc1 (stereo not drawn)	x	40.2	-4.1	-1.9	-2.5	13.9	6.0	1.2	x	i
28	O=C(COC(=O)c1ccccc1Cl)NC1CCCCCC1	-1.1	x	-9.6	-13.1	0.4	x	0.1	x	57.6	i
29	Cc1ccc(OCC(=O)N2CC(C)OC(C)C2)c([N+](=O)[O-])n1 (stereo not drawn)	1.1	-11.5	7.0	-0.1	-0.2	13.8	3.3	-0.7	-3.4	i
30	Fc1ccc(OCCCn2ccnc2)cc1	-3.3	-19.2	18.6	14.2	2.7	2.7	-0.2	-2.0	-1.9	i
31	O=C(NCCCN1CCc2ccccc2C1)C1CCN(S(=O)(=O)N2CCC3(CC2)OCCO3)CC1	-1.8	-5.3	15.4	7.2	2.0	24.4	-1.1	7.2	-14.7	i
32	O=C(CCCn1c(=S)[nH]c2cc3c(cc2c1=O)OCO3)NCc1ccccc1Cl	3.7	18.1	-4.3	8.2	-2.8	7.7	-4.3	0.4	0.0	i
33	COc1ccc(C(=O)N2CCNC(=O)C2CC(=O)Nc2ccc(C)c(C)c2)cc1 (stereo not drawn)	-1.1	17.3	7.8	26.7	1.8	1.6	-1.6	-3.9	-5.2	i
34	NNC(=O)c1cccc(S(=O)(=O)Nc2cccc(C(F)(F)F)c2)c1	-0.2	-8.6	1.3	-21.1	0.5	22.7	-2.3	8.3	-5.2	i
35	O=C(CNc1ccccc1)N/N=C/c1ccc2c(c1)OCO2	1.8	-19.4	3.5	2.6	3.3	-2.7	-3.2	1.0	0.6	i
36	CC1=C(C(=O)O)N2C(=O)C(NC(=O)c3nn(C)cc3[N+](=O)[O-])C2SC1 (stereo not drawn)	-4.2	-11.8	9.9	11.9	0.3	-0.7	-8.5	-1.5	-6.6	i
37	Cc1nnc(SCC(=O)NCC2CCCO2)n1-c1ccccc1 (stereo not drawn)	-2.3	-7.6	x	x	x	-18.8	x	-20.6	x	x
38	c1ccc2c(c1)CCNC2c1ccncc1 (stereo not drawn)	2.0	5.4	3.4	8.0	1.2	-2.8	-0.9	1.8	-11.0	i
39	N/C(=N\OC(=O)COc1ccc(Cl)cc1)c1ccc(Cl)cc1	-4.4	9.2	16.7	7.0	2.7	u	-9.4	0.9	-3.6	i
40	CC(C)(C)OC(=O)[C@H](Cc1ccccc1)NC(=O)c1nc[nH]c1C(=O)N1CCN(c2ccccc2)CC1	0.3	9.6	-8.3	-11.4	-8.4	7.3	4.8	0.1	2.3	i
41	C=CCn1c(=O)[nH]c2cc(C(=O)N3CCN(c4cc(C)ccc4C)CC3)ccc2c1=O	2.9	5.8	x	x	x	-12.3	x	-1.1	-7.1	x
42	COc1ccc(-c2[nH]ncc2-c2cnn(-c3ccccc3)c2)c(O)c1	-10.1	6.6	x	x	x	35.9	x	-1.6	59.6	x
43	Brc1c(-c2ccc3c(c2)OCO3)nc2ncccn12	1.7	-1.2	-3.9	-10.5	-0.4	21.5	0.7	-2.3	-0.3	i
44	CCOC(=O)N1CCC(c2[nH][nH]c(=O)c2C)CC1	5.0	3.3	x	x	x	4.0	x	-1.5	2.7	x
45	O=C(C(Cc1ccccc1)N1C(=O)C2C3C=CC(C3)C2C1=O)N1CCCCCC1 (stereo not drawn)	0.9	-7.4	x	x	x	3.4	x	1.8	-1.6	x
46	CC(=O)Nc1ccc(S(=O)(=O)NC(C)(C#N)C2CC2)cc1 (stereo not drawn)	-6.3	-7.9	10.1	4.0	-0.4	-11.9	1.6	-0.6	-9.4	i
47	O=C(COc1ccc2c(C(F)(F)F)cc(=O)oc2c1)Nc1ccc2c(c1)OCCO2	0.8	-1.3	x	x	x	-6.7	x	3.6	1.3	x
48	O=[N+]([O-])c1cccc(OCc2cn3cccnc3n2)c1	-7.0	11.4	11.4	0.0	1.7	3.0	-9.9	-0.4	-4.4	i
49	Cc1occc1C(=O)N1CCN(c2ccc(Cl)c(Cl)c2)CC1	2.2	-30.3	x	x	x	-2.3	x	2.8	15.7	x
50	O=C(CSc1nnc(-c2ccccc2Cl)n1Cc1ccco1)Nc1ccc2c(c1)OCCO2	2.7	11.9	x	x	x	-0.2	x	3.6	-7.5	x
51	O=C(CSc1nc2ccccc2c(=O)n1-c1ccc(F)cc1)Nc1ccc(C(=O)O)cc1	-1.9	2.3	-5.4	-4.3	-1.1	-12.0	-2.9	u	-3.9	i
52	CCOC(=O)C1(CCc2ccccc2)CCN(C(=O)C2=C(C)OCCO2)CC1	-2.6	4.8	5.9	-8.2	0.7	5.5	-0.8	2.8	x	i
53	COc1ccccc1NC(=O)CSc1nc(=O)n(CCN2CCOCC2)c2c1CCC2	1.1	-8.6	13.2	8.9	1.0	4.5	0.1	0.2	-87.0	i
54	CC1(C)C(=O)Nc2ccccc2N1C(=O)CSc1nnc2c(Cl)cc(Cl)cn12	-14.3	-12.0	x	x	x	-2.4	3.7	-0.1	x	i
55	CC(C)Cc1cc(C(=O)N2CCC(N3CCC(C(=O)N4CCCC4)CC3)CC2)n[nH]1	-1.8	-16.6	x	x	x	4.0	-1.1	0.0	-54.4	i
56	CCn1c(=S)sc2c(=O)n(CC(=O)Nc3ccc(Cl)cc3)c(C)nc21	1.4	1.0	-19.9*	2.1*	7.0*	19.0	-15.5	1.5	-0.2	i
57	Cc1c(N2C(=O)C(=O)/C(=C(/O)c3ccccc3)C2c2ccc(F)cc2)c(=O)n(-c2ccccc2)n1C (stereo not drawn)	1.0	4.8	x	x	x	4.2	x	2.2	-10.0	x
58	Cc1cc[n+](CC(=O)Nc2nc3ccccc3s2)cc1	2.1	-12.3	23.9	22.1	4.9	-12.8	-1.6	-1.3	-2.3	i
59	CC(C(=O)O)n1c(-c2ccn[nH]2)n[nH]c1=S (stereo not drawn)	-2.4	-9.4	9.1	3.2	-1.2	4.8	3.3	6.3	0.2	i

# Source: PubChem BioAssay (Broad Institute)
